# Screening results as filed in PubChem.
# miR-21 reporter – miR-21 reporter, rising signal; HeLa miR-21 FLuc reporter, luciferase, 48 h; Potency, µM (doses to about 38.3 µM), without a hit: at the top dose reporter change, positive = more light; 340,000 tested, under 10 active; AID 2288; active = well fitted rising curve with a large enough effect; inconclusive = small, poorly fitted or top-dose-only effect; inactive = no such curve, though single readings can be large or run the other way;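 also: % of control where 0% means no effect; miR-21 action dims this reporter so a rising signal means less miR-21 action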
#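 HeLa cells endogenously expressing miR-21, stably carrying CMV-driven firefly luciferase with a downstream miR-21 binding site, 2000 cells/well. Titrations up to approximately 40 uM, 48 hours; luciferase luminescence read.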
# Rango release inh – inhibition of RanGTP-driven Rango-importin beta dissociation; O95149+P62826; Potency, µM (highest dose often 46.1 µM), inactives show at the highest dose activity change, negative = inhibition; 0.071% of 340,000 active; Biochemical FRET Rango-importin beta, RanGTP-induced dissociation; AID 540253; active means falling FRET ratio curve, often poorly fitted, with flat reads before Ran was added; inconclusive means other falling curves, or compound fluorescence or quenching; inactive means flat or rising ratio curve;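 also: potency is read from the fitted curve at half-maximal effect; % of control where 0% means no effect; nearly all actives have a fitted effect of over 45% in size; -100% = wells without RanGTP and RCC1; the record marks most hits as doubtful in a second field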
#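 Quantitative HTS using a FRET biosensor: 0.1 uM Rango, 0.25 uM importin beta, 0.6 uM Ran, 2 mM GTP, 0.2 uM RCC1 final, PBS with DTT, Tween-20 and BSA. Post-read taken 45 min after Ran addition.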
# Rango complex inh – Rango-importin beta binding inhibition | Rango CFP/YFP FRET sensor + importin beta, 45 min | 0.031% of 340,000 active | Potency, µM (series often up to 92.2 µM), inactives show top-dose inhibition of complex formation | Q14974; active = rising FRET ratio curve, often small or poorly fitted; inconclusive = mostly compound fluorescence or quenching in the first reads; inactive = flat curves in all reads;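 also: potency is read from the fitted curve at half-maximal effect; 0% = DMSO wells and 100% = buffer wells lacking importin beta; nearly all actives have a fitted effect of over 15% in size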
#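 FRET biosensor Rango (snurportin 1 IBB between N-terminal EYFP and C-terminal Cerulean), 50 nM in PBS/1 mM DTT/0.02% Tween-20/0.1% BSA, preincubated 5 min RT with compound; 0.125 microM importin beta added, 45 min RT, CFP/YFP FRET ratio read.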
# GLA inh pH 4.5 – alpha-galactosidase A (human) inhibition, pH 4.5. P06280. purified enzyme, 4-MU-alpha-Gal fluorescence, pH 4.5. activity change, negative = inhibition, % at 105 µM. 230,000 tested, under 10 active. AID 1467; inconclusive = small, poorly fitted or top-dose-only inhibition, or a rising curve; inactive = flat fitted curve, though single readings scatter; no compound was filed as active;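 also: 0% = full activity with enzyme and -100% = basal without enzyme; dose as in the result columns while the protocol names 77 µM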
# Target sequence (P06280 whole entry, looked up): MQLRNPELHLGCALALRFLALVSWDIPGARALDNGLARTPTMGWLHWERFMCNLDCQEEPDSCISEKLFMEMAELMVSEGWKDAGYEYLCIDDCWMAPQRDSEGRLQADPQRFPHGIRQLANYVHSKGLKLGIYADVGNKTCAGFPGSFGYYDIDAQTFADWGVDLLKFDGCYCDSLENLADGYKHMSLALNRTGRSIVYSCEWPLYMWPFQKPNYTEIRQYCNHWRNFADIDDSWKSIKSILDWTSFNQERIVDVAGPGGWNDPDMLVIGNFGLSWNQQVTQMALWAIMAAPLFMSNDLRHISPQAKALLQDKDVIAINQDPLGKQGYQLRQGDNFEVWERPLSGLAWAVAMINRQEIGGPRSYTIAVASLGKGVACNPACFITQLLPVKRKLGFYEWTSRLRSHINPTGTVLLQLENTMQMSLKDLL
# Numbers without * were called inactive; ? = inconclusive; nt = not tested or not shown; [ ] = remark or other dose. Only part of the results is shown; the hit share may differ from the screen's.
SMILES,miR-21 reporter,Rango release inh,Rango complex inh,GLA inh pH 4.5
Cc1cc(C)cc(NC(=O)CN2CCCN(S(=O)(=O)c3ccc(Br)s3)CC2)c1,-3%,-1%,-1.4%,-12
CCOc1ccc(C(=O)N2CCN(CCc3ccccc3)CC2)cc1OCC,-6%,-14%,-2.8%,nt
COc1cc([C@H]2[C@@H]3CCCC[C@]3(O)CCN2CC(=O)Nc2ccc(C)cc2)ccc1O,-13%,1%,-0.2%,-5
Cc1cc(C)n(-c2ccc(C(=O)Nc3cccc(S(=O)(=O)N(C)C)c3)cc2)n1,25%,23%,-2.9%,5
C=CCn1c(C)cc(C(=O)COC(=O)[C@@H](NC(=O)c2ccccc2Cl)C(C)C)c1C,-28%,-2%,-3.2%,5
CCN(CC)C(=O)c1[nH]cnc1C(=O)N[C@@H](Cc1ccccc1)C(=O)OC(C)(C)C,8%,-7%,5.7%,nt
CCOc1ccc(C(C)=O)cc1COC(=O)c1ccccc1C(=O)N(C)Cc1ccccc1,nt,16%,4.1%,nt
CN(Cc1ccc(F)cc1)C(=O)c1cccc(OC2CCN(C3CCCC3)CC2)c1,-2%,6%,3.5%,-8
COc1cc(C(=O)NCc2cccc3ccccc23)cc(Cl)c1OC,-10%,6%,1.5%,1
COc1ccccc1N(C)S(=O)(=O)c1ccc(C(=O)NCCc2ccc(F)cc2)cc1,19%,1%,1.1%,nt
COc1cc(CNS(=O)(=O)CCl)cc(OC)c1OC,nt,-27%,4.6%,nt
Cc1ccc(NC(=O)CSc2n[nH]c(-c3ccccn3)n2)cc1,?,0%,-1.0%,nt
COc1ccc(C2c3c(c(C)c(C)oc3=O)Oc3c(C)c(C)oc(=O)c32)cc1,nt,6%,0.3%,nt
O=C(Nc1ccc(N2CCOCC2)c(F)c1)c1cccs1,-38%,-6%,-4.4%,nt
COc1ccc(S(=O)(=O)n2ccnc2)c2cccnc12,1%,?,1.1%,-6
CCCCC(=O)NC(NC(=O)CCCC)c1ccc(OCC(C)C)c(OC)c1,?,1%,0.6%,-6
Cc1ccc(N/C=C(\C#N)S(=O)(=O)c2ccccc2)cc1,-2%,3%,2.0%,-2
Fc1ccc(Nc2ncnc3ccccc23)cc1,-26%,7%,5.4%,nt
O=C(NCCN1CCC(Cc2ccccc2)CC1)C1CCN(S(=O)(=O)N2CCC3(CC2)OCCO3)CC1,5%,9%,-3.4%,-5
O=S(Cc1ccc(Br)cc1)Cc1nnc(SCc2c(Cl)cccc2Cl)n1-c1ccccc1 (centres undefined),29%,3%,-0.4%,-14
O=C(c1ccccc1)N1N=C(c2ccccc2)CC1c1ccc2nccnc2c1 (centres undefined),-11%,16%,-3.4%,1
CCOC(=O)CNC(=O)CSc1nnc(-c2cccc(C)c2)n1-c1ccc(OC)cc1,-1%,-1%,0.4%,-1
CCOC(=O)Cc1cc(=O)[nH]n(-c2ccccc2)c1=O,nt,-15%,3.8%,nt
CC(=O)NC12CC3CC(C1)CC(C(=O)Nc1c(C)n(C)n(-c4ccccc4)c1=O)(C3)C2,-1%,6%,1.1%,nt
CN=C1SC(CC(=O)Nc2sc(C)c(C)c2C(=O)OC)C(=O)N1C (centres undefined),-8%,-6%,2.2%,-2
C[C@@]12C(=O)N(c3ccc(F)cc3)C(=O)N1[C@@H]1c3ccccc3OC[C@@H]1[C@H]2c1ccccc1,7%,2%,5.1%,nt
CCn1ccnc1CN(C)Cc1nc(-c2ccccc2)no1,-32%,13%,0.0%,-9
CCOc1ccc(S(=O)(=O)N2CCC(C(=O)NCC3CCCO3)CC2)cc1C (centres undefined),0%,-17%,-2.1%,nt
CCOC(=O)CCC(=O)Nc1cc(S(=O)(=O)N2CCOCC2)ccc1N1CCCCC1,nt,8%,-2.4%,nt
CCN(CCO)Cc1csc2ccc(C(C)(C)C)cc12,-1%,1%,-3.8%,-19
FC(F)(F)Oc1ccc(NC(=S)NCCCN2CCOCC2)cc1,-1%,-9%,3.3%,1
COc1ccc(C(=O)n2nc(C)c(Br)c2C)cc1OC,0%,0%,0.4%,nt
Cc1ccccc1CSCC(=O)Nc1ccccc1Br,-19%,-19%,0.2%,nt
COc1ccc(C)cc1S(=O)(=O)N(C)CC(=O)NC1CCCC1,-5%,-8%,-0.2%,4
Cc1ccc(NC(=O)CSc2nc(=O)n(CCCN3CCOCC3)c3c2CCCC3)cc1,nt,1%,3.1%,nt
CCCCc1cc(=O)oc2cc(C)cc(OCC(=O)NCc3ccccn3)c12,7%,7%,-0.9%,nt
CCCc1ccc(OC(=O)c2cccs2)cc1,-1%,19%,6.0%,0
O=C(O)Cn1cc2c(n1)CCCCC2,-3%,?,0.7%,1
O=C(COC(=O)c1ccc(Br)o1)NCc1cccs1,1%,-1%,-5.9%,0
COc1ccc(NC(=O)Nc2nnc(CC(=O)Nc3ccccc3)s2)cc1,-15%,1%,-5.4%,7
COc1cc(N)ccc1C(=O)O,-2%,37%,4.5%,-4
C=CCOc1ccc2nc(NC(=O)OC)[nH]c2c1,6%,6%,-3.2%,-15
CCOC(=O)c1cc(CC)sc1NC(=O)c1ccc(N2C(=O)CCC2=O)cc1,1%,1%,2.4%,5
COc1ccccc1C(=O)OCc1c(-c2ccccc2)ncc2ccccc12,nt,4%,1.2%,nt
C=CCn1c(-c2cc3c(s2)CCC(CC)C3)n[nH]c1=S (centres undefined),-36%,19%,0.9%,-1

# 4 compounds out of the list above, ordered by the value under miR-21 reporter, falling:
molecule | miR-21 reporter | Rango release inh | Rango complex inh | GLA inh pH 4.5
CCCc1ccc(OC(=O)c2cccs2)cc1 | -1% | 19% | 6.0% | 0
COc1cc(N)ccc1C(=O)O | -2% | 37% | 4.5% | -4
COc1ccc(C)cc1S(=O)(=O)N(C)CC(=O)NC1CCCC1 | -5% | -8% | -0.2% | 4
Cc1ccccc1CSCC(=O)Nc1ccccc1Br | -19% | -19% | 0.2% | nt

# Going on with the list.
SMILES,miR-21 reporter,Rango release inh,Rango complex inh,GLA inh pH 4.5
Cc1ccc(C)c(C(=O)N2CCN(c3ncccn3)CC2)c1,-5%,-5%,-0.4%,nt
CCCc1oc(C(=O)O)cc1CN1CCCC1,-3%,4%,-1.4%,3
O=C(O)CCC(=O)Nc1ccccc1C(=O)N1CCN(c2ccc(Cl)cc2)CC1,5%,4%,-1.9%,6
Cc1c(C(=O)Nc2ccccc2C(=O)N2CCOCC2)cccc1[N+](=O)[O-],-12%,6%,-2.6%,-8
COc1cccc(NC(=O)CN(C)C(=O)CN2C(=O)NC(C)(c3ccc(C)cc3)C2=O)c1 (centres undefined),nt,27%,-3.1%,nt
Cc1cc(=O)oc2cc(OCC(=O)c3ccc4c(c3)NC(=O)CO4)ccc12,2%,4%,1.4%,10
CCOC(=O)N1CCN(C(=O)Cc2ccc(Cl)cc2)CC1,-16%,2%,-0.7%,-14
O=C(OCc1cc(=O)n2ccsc2n1)c1ccc(O)cc1O,nt,-12%,0.0%,nt
Cc1nc(NCCc2ccc(Cl)cc2)c2nnn(Cc3ccccc3)c2n1,-1%,-7%,-2.3%,nt
CCN(CC(=O)Nc1ccc(Cl)c(S(=O)(=O)N(C)C)c1)Cc1nc2ccccc2c(=O)[nH]1,-18%,0%,?,3
Clc1ccc(CO/N=C/c2cccs2)cc1,0%,1%,-2.9%,-6
CC(=O)Nc1ccc(NC(=O)CCNC(=O)c2ccccc2Cl)cc1,-1%,-1%,-1.2%,nt
Cc1ccccc1OCC(=O)NNC(=O)Nc1ccc(Cl)cc1,20%,10%,4.3%,-3
CS(=O)(=O)N1N=C(c2ccc(Br)cc2)CC1c1ccc2c(c1)OCO2 (centres undefined),-61%,-20%,?,7
CC1=C(C(=O)Nc2ccc(C)cc2C)C(c2cccc([N+](=O)[O-])c2)n2nc(C(=O)OC(C)C)nc2N1 (centres undefined),1%,-20%,4.0%,2
NCCN1CCN(CCN)CC1,-2%,-4%,-1.2%,4
Cc1cccc(C(=O)NCCCNC(=O)c2cccnc2)c1,-5%,-14%,-1.8%,nt
O=C(CCl)c1ccc2c(c1)CCN2C(=O)C1CC1,1%,nt,nt,4
Cc1cccc(N2CCN(C(=O)CCCCCn3c(=S)[nH]c4ccc(N5CCOCC5)cc4c3=O)CC2)c1C,3%,1%,?,nt
CN(CC(=O)Nc1ccccc1Br)C(=O)c1cccc(S(=O)(=O)N2CCc3ccccc32)c1,nt,2%,0.6%,nt
O=C(c1ccccc1)c1cccs1,1%,18%,-0.6%,4[21.1 µM]
O=C(OCc1c(-c2ccccc2)ncc2ccccc12)c1ccco1,nt,-12%,-2.7%,nt
CCCNC(=O)c1cc(-c2ccco2)on1,-72%,-13%,3.9%,6
Cc1ccc2c(C)nc(Nc3nc(CSc4nnc(C)s4)cc(=O)[nH]3)nc2c1,-5%,-1%,-2.1%,-12
Cc1ccc(C(=O)CSc2nnnn2Cc2ccccc2)cc1C,0%,-1%,1.5%,-15
COc1ccc(Cl)cc1NC(=O)CC1S/C(=N/N=C2CCCCCC2)NC1=O (centres undefined),0%,-10%,0.9%,nt
N#CCSc1nnc(N)s1,8%,10%,2.3%,1
Cc1nc2ncnn2c(C)c1C/C=C/c1ccccc1,-9%,3%,-3.4%,-6
Cc1cccc(CC(=O)Nc2ccon2)c1,1%,-7%,0.4%,nt
Cc1n[nH]c(=S)n(/N=C/c2cccc([N+](=O)[O-])c2)c1=O,4%,26%,1.2%,-2
O=C(CN1CCCCCC1)NN(Cc1ccccc1)c1ccccc1,3%,3%,-0.5%,-4
O=c1oc2ccccc2c2c1ncn2C1CCCCC1,-37%,15%,-5.6%,-9
COC(=O)CCC(=O)Nc1ccc(NC(=O)CCC(=O)OC)cc1,10%,-6%,-0.9%,8
COc1ccc(NC(=O)CSc2nnc(-c3cc(C)[nH]n3)n2N)cc1,-3%,4%,3.8%,nt
O=C(Nc1ccc(CN2CCOCC2)cc1)c1ccco1,0%,1%,2.0%,nt
O=C(Nc1ccc(S(=O)(=O)Nc2ccccn2)cc1)C(F)(F)F,0%,10%,-3.1%,1
COc1cccc(-c2noc(-c3cccnc3)n2)c1,-41%,3%,0.9%,1
COc1ccc(NS(=O)(=O)c2ccc3c(c2)NC(=O)CO3)c(OC)c1,-3%,-5%,0.1%,nt
COc1cccc(-n2c(=O)n(Cc3ccccc3)c(=O)c3[nH]cnc32)c1C,-12%,-2%,-1.1%,-5
O=C(c1cnn2ccccc12)N1CCCc2ccccc21,-10%,18%,-3.5%,-8
COC(=O)c1ccc(NC(=S)N2CCN(Cc3ccccc3)CC2)cc1,-10%,-5%,0.4%,2
Cc1ccc(Nc2n[nH]c(C)c2[N+](=O)[O-])c(C)c1,-45%,3%,-4.0%,-14
COc1ccccc1NC(=O)C(C)OC(=O)CSCC(=O)Nc1cc(C)on1 (centres undefined),nt,15%,0.0%,nt
CCCOc1ccc(C(O)(CCN2CCCCC2)c2ccccc2OC)cc1 (centres undefined),17%,-7%,4.4%,nt
Cc1ccc(CNC(=O)C2CC(=O)N(CCC(C)C)C2)cc1 (centres undefined),3%,?,4.7%,-3
Cc1ccc(-n2c(N)c(S(=O)(=O)c3ccccc3)c3nc4ccccc4nc32)cc1,1%,4%,-3.3%,?
CC(CC(C)C(=O)Nc1ccccc1C(C)(C)C)C(=O)O (centres undefined),-3%,-14%,-0.7%,-2
O=C(NC1CC1)c1sc2cc([N+](=O)[O-])ccc2c1Cl,-47%,-4%,0.5%,3
Cc1cc2c(NCc3ccccc3)ncnc2s1,17%,13%,3.8%,nt
CC1CN(S(=O)(=O)c2cccc(C(=O)N(C)C3CCN(C)CC3)c2)CC(C)O1 (centres undefined),nt,18%,1.7%,nt
COc1cccc(C(=O)N2c3cc(C)ccc3OCC2C(C)(C)C)c1 (centres undefined),3%,-22%,4.0%,nt
Cc1ccc(S(=O)(=O)N2CCN(C(=O)C(C)Cn3cncn3)CC2)cc1C (centres undefined),3%,5%,-2.0%,nt
COc1cccc(OCC(=O)O)c1,-4%,-20%,-2.8%,2
CC(=O)N1N=C(c2cccc(Cl)c2)OC1c1ccc(C(C)C)cc1 (centres undefined),-32%,-8%,0.1%,-4
